# Screens (PubChem BioAssay)
# Cruzain inh noDet: inhibitors of Trypanosoma cruzi cruzain without detergent; AID 1476; Potency, µM, for the others: max response, negative = inhibition, hits mostly inhibitors; purified cruzain, Z-FR-AMC fluorescence, no detergent; P25779; hit rate 2.3% among 200,000; active = well fitted curve in the direction sought with a large enough effect; inconclusive = small, poorly fitted or top-dose-only effect, or another doubt; inactive = no such curve, though single readings can be large; an effect the other way counts as inactive or inconclusive;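 also: plate controls were enzyme without inhibitor for no effect and buffer without enzyme for full effect; nearly all actives have a fitted effect of over 40% in size; top concentration of the series not given in the record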
# Target sequence (P25779 123-467 limits assumed): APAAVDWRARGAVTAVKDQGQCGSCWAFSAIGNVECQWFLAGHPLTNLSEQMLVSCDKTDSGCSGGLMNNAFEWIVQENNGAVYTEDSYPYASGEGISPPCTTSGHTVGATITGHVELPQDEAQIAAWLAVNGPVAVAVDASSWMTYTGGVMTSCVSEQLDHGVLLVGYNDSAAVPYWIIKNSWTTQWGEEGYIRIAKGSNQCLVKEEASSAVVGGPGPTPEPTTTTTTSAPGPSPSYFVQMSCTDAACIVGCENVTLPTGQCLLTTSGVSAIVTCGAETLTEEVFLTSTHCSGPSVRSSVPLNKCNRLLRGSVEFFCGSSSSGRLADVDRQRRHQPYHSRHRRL
#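 Detergent-free condition (0.00005% Triton X-100) in acetate buffer pH 5.5 with DTT. 1.5 nM enzyme and compound were pre-mixed 15 min, then 2 uM Z-FR-AMC substrate added; reaction progress from fluorescence change between first and third reads (60 s).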
# MARV entry inh: inhibitors of Marburg virus binding or cell entry | Marburg virus pseudotyped entry inhibition, cell reporter; control for the full effect not named in the record; about a third of the inactives were read at about 46 µM | Potency, µM (highest dose often 37.8 µM), without a hit: top-dose activity change, negative = inhibition, usual class: inhibitors | hit rate 1.8% among 300,000; active = well fitted inhibition curve with a large enough effect; inconclusive = small, poorly fitted or top-dose-only effect, or effect the other way; inactive = flat fitted curve, though single readings scatter; tested in HEK293 cells; about a fifth of its hits are not listed in these tables; also: % is scaled to controls: 0 for no effect and ±100 for the full control effect; luciferase read-out
# NS1 inh: influenza NS1 inhibition. S. cerevisiae slowed by influenza A NS1, growth recovery by OD600. Potency, µM (series often up to 46.1 µM), inactives show top-dose activity, positive = more growth. hit rate 0.4% among 270,000; also: actives are rising curves; nearly all actives have a fitted effect of over 50% in size
#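 In this qHTS, NS1 from influenza A is expressed in budding yeast, where it slows growth. Cells are switched from glucose to 2% galactose medium (pH 6.0, -URA), treated with compound, and growth recovery is read at OD600.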
# 2A StopGo: FMDV 2A StopGo reporter, luciferase signal; Potency, µM (series often up to 57.9 µM), without a hit: at the top dose signal change, negative = less light; human cells with a luciferase reporter of 2A StopGo recoding; control for the full effect not named in the record; AID 1159524; hit rate 1.2% among 410,000; active = well fitted falling curve with a large enough effect; inconclusive = small, poorly fitted or top-dose-only effect; inactive = no such curve, though single readings can be large or run the other way; tested in HEK293T cells; also: % is scaled to controls: 0 for no effect and ±100 for the full control effect; nearly all actives have a fitted effect of over 45% in size; luciferase light after 4 h
# Cruzain Triton: blocks cruzain activity in presence of Triton detergent | P25779 | purified cruzain, Z-FR-AMC fluorescence, 0.01% Triton | Potency, µM, inactives show max response, negative = inhibition, most hits filed as inhibitors | hit rate 0.43% among 200,000 | AID 1478; active = well fitted curve in the direction sought with a large enough effect; inconclusive = small, poorly fitted or top-dose-only effect, or another doubt; inactive = no such curve, though single readings can be large; an effect the other way counts as inactive or inconclusive;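 also: plate controls were neutral wells for no effect and buffer without enzyme for full effect; nearly all actives have a fitted effect of over 40% in size; top concentration of the series not given in the record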
#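 Read-out: AMC fluorescence (360 nm excitation, 450 nm emission), four reads over 2 min, first-to-third difference used. Conditions: cruzain 1.5 nM, Z-FR-AMC 2 uM, pH 5.5 acetate, 5 mM DTT, 0.01% Triton X-100.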
# LASV entry inh: Lassa virus entry inhibition; Lassa virus pseudotype entry inhibition, cell reporter; control for the full effect not named in the record; AID 540256; Potency, µM (doses to about 37.9 µM), without a hit: at the highest dose activity change, negative = inhibition, actives largely listed as inhibitors; hit rate 1.2% among 300,000; active means well fitted inhibition curve with a large enough effect; inconclusive means small, poorly fitted or top-dose-only effect, or effect the other way; inactive means flat fitted curve, though single readings scatter; tested in HEK293 cells; also: % is scaled to controls: 0 for no effect and ±100 for the full control effect; nearly all actives have a fitted effect of over 50% in size; luciferase read-out
# SARS PLpro yeast: blocks SARS-CoV papain-like protease in a yeast assay; hit rate 0.19% among 330,000; Potency, µM (top dose mostly 32.9 µM), for the others: top-dose activity, positive = growth rescue; S. cerevisiae expressing SARS-CoV PLpro, growth rescue; control for the full effect not named in the record; also: 0% is about no effect; nearly all actives have a fitted effect of over 55% in size; growth read by luminescence after 48 h
# RE007 growth inh: less growth of the S. pombe RE007 Vpr strain | S. pombe RE007 Vpr strain, BacTiter-Glo ATP luminescence, 24 h; control for the full effect not named in the record | Potency, µM (top dose mostly 92.2 µM), without a hit: at the highest dose activity change, negative = less growth | hit rate 0.21% among 360,000; active = well fitted falling curve with a large enough effect; inconclusive = small, poorly fitted or top-dose-only effect; inactive = no such curve, though single readings can be large or run the other way;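 also: % is scaled to controls: 0 for no effect and ±100 for the full control effect; nearly all actives have a fitted effect of over 50% in size; the assay follows cell death caused by Vpr and the record does not say whether a fall means rescue or toxicity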
#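 Fission yeast strain RE007, carrying one chromosomally integrated HIV-1 vpr copy, was seeded at OD 0.01 in PMG+AL medium with 23 nL pinned compound. After 24 h at 30 °C and 99% humidity, viability was read by BacTiter-Glo luminescence.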
# * = called active by the depositor; ? = inconclusive; / = not tested or not shown; & = joins results of further samples; [ ] = another dose, or the depositor's remark. Unless noted, calls follow the shape of the dose curve; as a rule, active means well fitted rising curve with a large enough effect; inconclusive means small, poorly fitted or top-dose-only effect; inactive means no such curve, though single readings can be large or run the other way. Potency is read from the fitted curve at half-maximal effect.
SMILES,Cruzain inh noDet,MARV entry inh,NS1 inh,2A StopGo,Cruzain Triton,LASV entry inh,SARS PLpro yeast,RE007 growth inh
O=C(O)C1CCCCC1C(=O)NCc1ccc(Cl)c(Cl)c1 (stereo not drawn),/,14%,5%,16%,/,2%,-1%,5%
COc1cccc(CC(=O)OCC(=O)NC2CCCCCC2)c1,/,-21%[46.1 µM],4%,-5%,/,-21%[46.1 µM],?,7%
Cn1c(N2CCCC2)nc2c1c(=O)n(Cc1ccc(Cl)cc1)c(=O)n2C,?,29%,-14%,-25%,-3.5%,1%,-7%,12%
CCC1=Nc2cc(C(=O)N3CCC4(CC3)OCCO4)ccc2Sc2ccc(Br)cc21,/,/,20%,-21%,/,/,-28%,0%
O=C(OC(C(=O)NCc1ccco1)c1ccc(Cl)cc1)c1cccs1 (stereo not drawn),/,/,?,11%,/,/,4%,-6%
CCOc1ccc(NC(=O)c2sc(-n3nc(C)c(Cc4ccc(Cl)cc4)c3C)nc2C)cc1,-9%,2%[46.1 µM],/,?,-0.4%,8%[46.1 µM],/,/
Cc1cccc(Nc2nc(-c3ccccc3)c3cc(C)ccc3n2)c1,-29%,/,/,-19%,-5.6%,1%[46.1 µM],/,/
CCn1cc(C(=O)N2CCN(c3cccc(Cl)c3)CC2)c(=O)c2cc(S(=O)(=O)N3CCOCC3)ccc21,?,?,/,-18%,-21%,-15%[46.1 µM],/,/
CCOC(=O)C1CCCN(S(=O)(=O)c2c(C)noc2C)C1 (stereo not drawn),/,?,-2%,3%,/,17%[46.1 µM],6%,0%
COc1ccccc1NC(=S)NCc1ccc2c(c1)cc(C)n2C,/,-4%[46.1 µM],/,10%,/,1%[46.1 µM],0%,-1%
CCOC(=O)c1cnc2c(cnn2C)c1Oc1ccc(OC)cc1,/,-6%[46.1 µM],-6%,-15%,/,-21%[46.1 µM],1%,12%
COCC1CCN(C(=O)C2CCC(=O)N(C3CCCCCC3)C2)CC1 (stereo not drawn),/,1%,0%,-12%,/,13%,-5%,9%
CCOc1ccc(S(=O)(=O)N2CCC(C(=O)N3CCN(Cc4ccccc4)CC3)CC2)cc1,/,-3%,-5%,-7%,/,-3%,2%,9%
CN1C2=CC=CC=CC2=[N+](C)C12C=CC(=[N+]([O-])[O-])C=C2[N+](=O)[O-] (stereo not drawn),/,?,-6%,?,/,-25%,-4%,-14%
COc1cc(C)ccc1OCCn1c(-c2ccc(Cl)cc2)nc2ccccc2c1=O,4%,-5%[46.1 µM],/,-8%,-0.1%,-13%[46.1 µM],/,/
CCCN1CCCc2cc(CN(CCCN3CCOCC3)C(=O)Nc3ccc(Cl)c(Cl)c3)ccc21,6%,/,/,-26%,-5.8%,?,/,/
N#CC1=C(S)N(c2ccc(F)cc2)C(c2ccco2)NC1=O (stereo not drawn),/,3%,/,8%,/,3%,0%,-11%
COCC(=O)N/N=C\c1ccccc1OC/C=C/c1ccccc1,/,/,-30%,44%[activator],/,/,-1%,-13%
C[n+]1c(-c2ccccc2)cc(-c2ccc(O)cc2)cc1-c1ccccc1,/,-9%[46.1 µM],/,-19%,/,-1%[46.1 µM],2%,9%
COc1ccccc1OCC(=O)N/N=C/c1cccc2cccnc12,/,-28%,-34%,-10%,/,-18%,-8%,-1%
COc1ccccc1CNS(=O)(=O)c1ccc2c(c1)NC(=O)CO2,/,/,-1%,17%,/,/,0%,-5%
COc1ccc(CN2CCNC(=O)C2CC(=O)N2CCCO2)c(OC)c1 (stereo not drawn),/,10%,-4%,-6%,/,-10%,1%,2%
COc1ccc(CNC(=O)C(c2ccc(O)cc2)N(Cc2ccco2)C(=O)c2snc(C(N)=O)c2N)cc1 (stereo not drawn),/,?,12%,-3%,/,?,-1%,11%
Cc1cc(C)nc(SCC(=O)N/N=C/c2ccc3c(c2)OCO3)n1,/,0%,5%,22%,/,0%,-4%,-3%
O=C(Cn1c(C(=O)N2CCN(C3CCCC3)CC2)cc2sccc21)c1ccccc1,6%,?,-1%,0%,-1.3%,?,-2%,-7%
CCc1ccc(CNC(=O)c2cnc3sc(N4CCCCCC4)nn3c2=O)cc1,-5%,/,/,-15%,-0.5%,?,/,/
COc1ccc(Cc2nnc(NC(=O)C3CC(=O)N(c4ccccc4C)C3)s2)cc1OC (stereo not drawn),/,-5%,/,-30%,/,-26%,4%,27%
CN1CCN(CCC(=O)N/N=C/c2ccccc2F)CC1,/,4%[46.1 µM],12%,2%,/,11%,7%,-10%
Cc1ccc(NC(=O)CN(C)CC(=O)Nc2ccc(N3CCOCC3)cc2)cc1F,/,/,5%,12%,/,/,1%,-10%
CCC(C#CCN1CCCCC1)(CC)OCCC#N,-5%,2%,2%,-15%,2.2%,17%,0%,-21%
Cc1nnc(SCC(=O)Nc2nc(-c3ccccc3)cs2)n1N,-19%,7%,?,6%,4.2%,4%,4%,-4%
CCN(CC)c1ccc2cc(-c3nnc(-c4ccncc4)o3)c(=O)oc2c1,-3%,3%&0%,4%,13%,-1.6%,5%,5%,0%
Cc1cccc(NCc2cccc3ccccc23)n1,/,/,-18%,41%[activator],/,/,-3%,-16%
Cc1cc(/C=C2\SC(=Nc3ccc(N4CCOCC4)cc3)N(C)C2=O)c(C)n1-c1cccnc1,?,?,21%,25%,-4.2%,3%,19%,-2%
COc1ccc(NC(=O)C(c2cc3c(cc2[N+](=O)[O-])OCO3)N(C)c2ccccc2)cc1 (stereo not drawn),-18%,9%,-5%,-1%,-3.1%,?,5%,-5%
C[C@H](NC(=O)c1cc2cc(Cl)ccc2n1C)C(=O)N1CCC(C(=O)O)CC1,/,?,-3%,-24%,/,?,15%,5%
Cc1ccc(OCCn2cncn2)c([N+](=O)[O-])c1,/,/,-16%,12%,/,/,2%,-1%
Cc1nn(C)c(Cl)c1CN1CCCC(C(=O)Nc2ccc(-c3cscn3)cc2)C1 (stereo not drawn),/,-24%,25%,-3%,/,?,5%,1%
Cc1ccccc1NC(=O)CCl,/,/,3%,?,/,/,2%,7%
O=C(NCc1ccco1)c1ccc2c(c1)N(Cc1ccccc1)CCS2,/,0%,-12%,18%,/,/,5%,17%
COc1ccc(NC(=O)c2sc3nc(N4CCOCC4)c4c(c3c2N)CC(C(C)C)OC4)c(OC)c1 (stereo not drawn),/,/,6%,-7%,/,/,3%,-4%
COc1ccc(C(OCC(O)CNC(C)c2ccccc2)c2ccc(OC)cc2)cc1 (stereo not drawn),/,3.5µM*,-1%,4%,/,?,10%,4%
O=C(CN1CCCC1)NC1C2CC3CC(C2)CC1C3 (stereo not drawn),-14%,?,0%,8%,3.6%,6%,8%,21%
CC(C)Cc1[nH]c(=O)c(C#N)c2c1CCCC2,-5%,4%&4%,-2%[9.22 µM],/,-4.6%,1%,2%,-5%
CN1CCN(C(=O)/C(=C/c2cccc([N+](=O)[O-])c2)NC(=O)c2ccccc2)CC1,/,-9%[46.1 µM],8%,0%,/,-1%,0%,16%
O=C(CCN1C(=O)/C(=C\c2ccco2)SC1=S)Nc1ccc(C(=O)O)c(O)c1,/,/,7%,14%,/,/,3%,-14%
COc1ccc(NC(=O)C(=O)NCc2ccco2)cc1,1%,/,/,48%[activator],1.3%,28%[46.1 µM],/,/
CCOC(=O)c1c(C)n(-c2ccc(C)cc2)c2ccc(OCC(O)CN3CCN(C)CC3)cc12 (stereo not drawn),/,?,/,8%,/,?,-2%,0%

# Overlap with the part before: 2 entries; new compounds follow.
SMILES,Cruzain inh noDet,MARV entry inh,NS1 inh,2A StopGo,Cruzain Triton,LASV entry inh,SARS PLpro yeast,RE007 growth inh
COc1ccc(NC(=O)C(=O)NCc2ccco2)cc1,1%,/,/,48%[activator],1.3%,28%[46.1 µM],/,/
CCOC(=O)c1c(C)n(-c2ccc(C)cc2)c2ccc(OCC(O)CN3CCN(C)CC3)cc12 (stereo not drawn),/,?,/,8%,/,?,-2%,0%
Cn1nccc1C(=O)Nc1ccc(OC(=O)c2ccnn2C)cc1,2%,3%,-6%,/,1.4%,0%,0%,8%
O=C(Oc1ccc2c(c1)O/C(=C\c1ccncc1)C2=O)c1cccs1,/,?,2%,-10%,/,11%[46.1 µM],-1%,-20%
Cn1cccc1/C=N/N1CCN(Cc2ccccc2Cl)CC1,/,23%[46.1 µM],8%,-25%,/,20%[46.1 µM],-3%,-10%
O=C(CCNC(=O)c1ccc(Br)cc1)Nc1ccccc1N1CCOCC1,/,-2%,/,-7%,/,?,4%,10%
COCCCNC(=O)c1c(NC(=O)c2ccco2)n(Cc2ccccc2)c2nc3ccccc3nc12,?,?,-1%,0%,-3.8%,4%,-1%,-16%
CCCc1nnc(NC(=O)c2cc(=O)c3cc(C)c(C)cc3o2)s1,-8%,1%[46.1 µM],/,-9%,-2.6%,24%[46.1 µM],/,/
Cc1cccc(N2CCN(C(=O)CCn3c(=S)[nH]c4cc5c(cc4c3=O)OCO5)CC2C)c1 (stereo not drawn),-4%,?,?,-23%,-0.8%,-12%,2%,12%
Cc1nn(C(C)(C)C)c(NC(=O)c2ccc(Cl)cc2)c1Br,/,3%[46.1 µM],1%,0%,/,6%[46.1 µM],0%,-8%
Cn1c(=O)c2nc(SCC(=O)Nc3ccc(OC(F)(F)F)cc3)n(C)c2n(C)c1=O,-1%,/,/,-21%,1.5%,-1%[46.1 µM],/,/
COC(=O)c1cccc(NC(=O)C2C3CCC(C3)C2C(=O)O)c1 (stereo not drawn),2%,11%,-4%,22%,3.4%,0%,11%,-3%
O=C(CSc1ccc(Cl)cc1)Nc1ccc(-c2nc3ccccc3[nH]2)cc1,20µM*,?,-4%,-19%,?,-17%,3%,2%
CC1CCN(S(=O)(=O)c2nnc(NC(=O)c3cccc(Br)c3)s2)CC1,-9%,/,/,-13%,-1.5%,?,/,/
COC(=O)C1(C)NC(c2ccc(F)cc2)C2C(=O)N(c3ccccc3)C(=O)C21 (stereo not drawn),/,/,21%,-12%,/,/,2%,-11%
